Compound activity deposited in PubChem BioAssay by National Center for Advancing Translational Sciences (NCATS).
PKM2 activator = activators of human pyruvate kinase M2; purified PKM2, Kinase-Glo ATP luminescence, activation; response scale: 0% is enzyme alone, no compound; Potency, µM (doses to about 57.5 µM), for the others: at the highest dose activation, most hits filed as activators; 0.34% of 260,000 active; AID 1631; further: potency means the concentration at half of the fitted maximal effect; on the % scale 0 is the no-effect control and ±100 the full control effect; nearly all actives have a fitted effect of over 55% in size
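ATP formation by purified human PK-M2, quantified via coupled luciferase luminescence after 1 h at room temperature with 0.1 mM ADP and 0.5 mM PEP final.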
Giardia killer = Giardia lamblia killing; 0.15% of 340,000 active; activity change, % at 7.66 µM, hits read low; Giardia lamblia trophozoite viability; in the data active means activity change below about -80%; inconclusive means between about -30% and that limit;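 further: parasites exposed to compound for two days anaerobically before the ATP read; on the % scale 0 is the no-effect control and ±100 the full control effect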
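Viability, read as ATP luminescence: trophozoites at 100 cells/well, compound added, 48 hrs anaerobic at 37 deg C, then 15-30 min room-temperature development before reading.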
GALK inhibitor = inhibitors of human galactokinase | P51570 | Purified GALK, Kinase-Glo residual ATP luminescence | Potency, µM (titrated, usually from 57.5 µM), without a hit: at the highest dose activity change, negative = inhibition, hits mostly inhibitors | 0.007% of 270,000 active | AID 1868; further: potency means the concentration at half of the fitted maximal effect; on the % scale 0 is the no-effect control and ±100 the full control effect
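Compounds were pin-transferred into ATP buffer (35 uM final), then GALK plus galactose (5 nM, 100 uM final) was added. After 1 h at room temperature, Kinase-Glo Plus was added and luminescence read after 10 min.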
hERG WT inh = blocks the wildtype human KCNH2 potassium channel; activity change, % at 1.84 µM; U2OS, BacMam KCNH2, thallium flux FluxOr; hits give low values; Q12809; 0.37% of 340,000 active;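 active means maximum activity change below -70%; inconclusive means maximum activity change between -70% and -50%; inactive means maximum activity change above -50%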; further: on the % scale 0 is the no-effect control and ±100 the full control effect
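U2OS cells were transduced with wild-type KCNH2 virus (2.03 x 10^8 / mL) for 4 h at room temperature, then cultured overnight at 37 C. Thallium flux was read with FluxOr dye. Rate constants were normalized to DMSO controls.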
USP2a inh = inhibitors of human ubiquitin-specific protease USP2a; O75604; USP2 core, Ub-CHOP2 coupled fluorogenic reporter, 485/531; Potency, µM (titrated, usually from 38.3 µM), inactives show at the highest dose activity change, negative = inhibition, most hits filed as inhibitors; 0.01% of 330,000 active; AID 463254;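 further: potency means the concentration at half of the fitted maximal effect; plate controls were DMSO wells for no effect and full inhibition by NEM control for full effect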
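USP2 core (10nM final) preincubated 30min RT with compound in 20mM Tris-HCl pH 8.0, 2mM CaCl2, 2mM beta-mercaptoethanol, 0.05% CHAPS; 25nM Ub-CHOP2 plus 25nM reporter substrate added, fluorescence (Ex485/Em531) read after 60min.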
KCNH2 3.1 inh = blocks the human KCNH2 3.1 channel isoform | U2OS KCNH2 3.1, thallium flux FluxOr; hits give low values | activity change, % (tested at about 1.8 µM) | 0.95% of 340,000 active;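 active means maximum activity change below -70%; inconclusive means maximum activity change from -70% to -50%; inactive means maximum activity change above -50%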;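 further: thallium influx rate constant from kinetic fluorescence after stimulation buffer; on the % scale 0 is the no-effect control and ±100 the full control effect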
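Kinetic fluorescence (2 min after stimulation buffer) measures Tl+ influx through KCNH2 3.1 expressed by viral transduction in U2OS cells; the rate constant is normalized against DMSO controls serving as positive and negative references.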
B2AR arrestin = recruits beta-arrestin to the human beta2-adrenergic receptor; P07550; beta-arrestin recruitment to beta2AR, cell-based reporter; Potency, µM (series often up to 46.1 µM), for the others: top-dose activation, usual class: activators; 0.02% of 330,000 active; AID 492947;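 further: potency means the concentration at half of the fitted maximal effect; 0% = DMSO controls and full agonism = EC100 isoproterenol or metaproterenol; nearly all actives have a fitted effect of over 65% in size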
MLL CXXC-DNA inh = inhibitors of human MLL CXXC domain-DNA interaction; Potency, µM (doses to about 115 µM), for the others: at the highest dose activity change, negative = inhibition, most hits filed as inhibitors; MLL-CXXC / FITC-HOXA9 DNA fluorescence polarization; 0.037% of 290,000 active; AID 2662; active means well fitted inhibition curve with a large enough effect in the polarisation, with a control signal flat, not every such curve was filed as active; inconclusive means small, poorly fitted or top-dose-only effect, or effect the other way, or a change in a side signal; inactive means no such curve, though single readings can be large or run the other way; the % refers to the polarisation; further: potency means the concentration at half of the fitted maximal effect
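Steps: dispense CXXC domain solution (7 uM) → pin compounds or unlabeled HOX-A9 DNA control → 5 min ambient → add FLSN-HOX-A9 solution (50 nM) → spin → 30 min ambient → fluorescence polarization. Tris pH 7.5/NaCl/DTT/BSA buffer.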
Coupling enz = coupling enzyme interference in Giardia aldolase counter-screen; coupling enzyme system counterscreen, AmpLite Red fluorescence; AID 2472; activity change, negative = inhibition, % at 58.2 µM, hits read low; 0.67% of 290,000 active; in the data active means activity change below about -30%; further: on the % scale 0 is the no-effect control and ±100 the full control effect
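First, compound is pin-transferred into glyceraldehyde-3-phosphate coupling-enzyme reagent at 57.5 uM final and held 10 min at RT. Next, substrate, coupling system and AmpLite Red are added. After 20 min RT, fluorescence (525/598 nm) is read.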
TRPV1 agonist = activates the human vanilloid receptor TRPV1; Q8NER1; activation, % at 8.33 µM; 0.19% of 320,000 active; TRPV1-expressing cells, Fluo-8 calcium influx, agonist mode; AID 540275; in the data active means activation above about 80%; inconclusive means between about 30% and that limit; further: 0% is about no effect
Target sequence (Q8NER1 whole entry, looked up): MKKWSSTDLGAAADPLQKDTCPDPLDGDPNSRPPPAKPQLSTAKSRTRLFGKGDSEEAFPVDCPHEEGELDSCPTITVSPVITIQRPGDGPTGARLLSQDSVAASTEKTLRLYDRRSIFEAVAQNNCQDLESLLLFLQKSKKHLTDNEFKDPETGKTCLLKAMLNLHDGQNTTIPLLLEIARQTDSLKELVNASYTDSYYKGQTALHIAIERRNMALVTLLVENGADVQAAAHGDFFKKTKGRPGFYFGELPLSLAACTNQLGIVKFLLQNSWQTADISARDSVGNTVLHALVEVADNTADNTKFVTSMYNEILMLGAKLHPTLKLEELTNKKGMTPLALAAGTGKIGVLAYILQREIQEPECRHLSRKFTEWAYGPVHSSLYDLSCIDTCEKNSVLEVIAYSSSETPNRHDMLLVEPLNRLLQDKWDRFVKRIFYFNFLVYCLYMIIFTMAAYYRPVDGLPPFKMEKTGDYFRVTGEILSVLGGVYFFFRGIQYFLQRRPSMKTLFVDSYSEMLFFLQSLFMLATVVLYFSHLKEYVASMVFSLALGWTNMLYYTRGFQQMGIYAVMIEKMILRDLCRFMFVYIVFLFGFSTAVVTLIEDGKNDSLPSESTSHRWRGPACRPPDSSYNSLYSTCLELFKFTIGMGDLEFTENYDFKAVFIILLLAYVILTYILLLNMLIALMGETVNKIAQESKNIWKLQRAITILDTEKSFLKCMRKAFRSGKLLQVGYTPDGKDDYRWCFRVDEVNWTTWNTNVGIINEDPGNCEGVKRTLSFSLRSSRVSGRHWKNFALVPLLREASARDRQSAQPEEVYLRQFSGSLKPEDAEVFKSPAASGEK
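TRPV1-expressing cells were cultured overnight at 35.5C and loaded with Fluo-8 calcium dye for 40 to 90 min at room temperature. After a 10 s baseline, compound was added and calcium influx was read kinetically for 3 min (ex 480/em 520 nm).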
The depositor's hits bear a star; ? = inconclusive; · = not tested or not shown. Unless noted, the call rests on the fitted dose curve; in most records, active means well fitted curve in the direction sought with a large enough effect; inconclusive means small, poorly fitted or top-dose-only effect, or another doubt; inactive means no such curve, though single readings can be large; an effect the other way counts as inactive or inconclusive. An excerpt, so the mix of outcomes need not match the whole.

Every second line gives: KCNH2 3.1 inh, MLL CXXC-DNA inh, B2AR arrestin, TRPV1 agonist, Coupling enz, USP2a inh, GALK inhibitor, hERG WT inh, Giardia killer, PKM2 activator
1) CCc1ccc(C2C(C(=O)O)c3ccccc3C(=O)N2C)cc1 (stereo unspecified)
→ -3.3, -0.4%, -0.1%, 0.4, 4.1, -0.7%, 2.2%, -0.4, -4.3, -0.7%
2) C=CCn1c(CCNC(=O)c2cccs2)nnc1SCC(=O)Nc1cccc(C(C)=O)c1
→ 4.9, 6.4%, 0.0%, 5.5, 4.2, 4.1%, 7.6%, -11.0, -0.2, 1.9%
3) O=C(CNC(=O)Cn1cnc2sc3c(c2c1=O)CCCC3)NCc1ccccn1
→ 2.0, -0.8%, -0.6%, -0.7, 2.7, -0.1%, 0.4%, -25.6, 3.1, -0.2%
4) CCOc1ccc(CCNc2nc3ccc(C)cc3n3cnnc23)cc1OCC
→ -2.3, 2.0%, 1.1%, 3.8, -2.2, 1.3%, -1.4%, -0.8, ?, ·
5) C/C(=N/OCO/N=C(\C)c1ccccc1)c1ccccc1
→ 13.7, 8.8%, -1.1%, 8.2, 2.6, 3.1%, 0.6%, -0.4, -13.1, 1.8%
6) COc1ccc(-c2nnc(SCC(=O)Nc3cc(C)on3)n2C)cc1OC
→ -24.8, 7.0%, 0.2%, -1.0, 3.1, -1.0%, -0.1%, -5.7, 1.3, 5.7%
7) Cc1ccc(NC(=O)Cn2nnc(C(=O)NCc3cccs3)c2N)cc1
→ -6.1, -3.4%, -0.3%, 4.3, -0.6, -2.6%, -1.9%, 14.0, -2.5, -1.0%
8) O=C(NCCSc1ccccc1)c1ccccc1
→ -5.4, -0.5%, 0.0%, ?, -0.4, 1.3%, 0.8%, -6.4, -1.2, -18.6%
9) CC(OC(=O)CCc1nc2ccccc2[nH]c1=O)C(=O)c1ccccc1 (stereo unspecified)
→ 3.2, -0.1%, 0.3%, 4.3, -0.7, 2.8%, 4.2%, -13.0, -8.3, 0.1%
10) Cc1cccc(NC2SC(=O)N(CC(=O)O)C2=O)c1 (stereo unspecified)
→ -3.1, 6.0%, 0.3%, 2.5, 2.5, 0.7%, 2.2%, -1.9, -7.5, 0.3%

Part of the list above, in transposed form.
[2] C=CCn1c(CCNC(=O)c2cccs2)nnc1SCC(=O)Nc1cccc(C(C)=O)c1
[3] O=C(CNC(=O)Cn1cnc2sc3c(c2c1=O)CCCC3)NCc1ccccn1
[4] CCOc1ccc(CCNc2nc3ccc(C)cc3n3cnnc23)cc1OCC
[5] C/C(=N/OCO/N=C(\C)c1ccccc1)c1ccccc1
[6] COc1ccc(-c2nnc(SCC(=O)Nc3cc(C)on3)n2C)cc1OC

Assay by compound	2	3	4	5	6
KCNH2 3.1 inh	4.9	2.0	-2.3	13.7	-24.8
MLL CXXC-DNA inh	6.4%	-0.8%	2.0%	8.8%	7.0%
B2AR arrestin	0.0%	-0.6%	1.1%	-1.1%	0.2%
TRPV1 agonist	5.5	-0.7	3.8	8.2	-1.0
Coupling enz	4.2	2.7	-2.2	2.6	3.1
USP2a inh	4.1%	-0.1%	1.3%	3.1%	-1.0%
GALK inhibitor	7.6%	0.4%	-1.4%	0.6%	-0.1%
hERG WT inh	-11.0	-25.6	-0.8	-0.4	-5.7
Giardia killer	-0.2	3.1	?	-13.1	1.3
PKM2 activator	1.9%	-0.2%	·	1.8%	5.7%

(listing goes on)
Every second line gives: KCNH2 3.1 inh, MLL CXXC-DNA inh, B2AR arrestin, TRPV1 agonist, Coupling enz, USP2a inh, GALK inhibitor, hERG WT inh, Giardia killer, PKM2 activator
11) Cc1cccc(-c2nnc(SCC(=O)O)n2Cc2ccccc2)c1
→ 5.6, 6.0%, -0.3%, -0.2, 1.3, 0.1%, 1.8%, 8.2, -5.0, 3.3%
12) COCCCNC(=S)NNC(=O)C1CC1c1ccc(C(C)(C)C)cc1 (stereo unspecified)
→ -8.4, 10.1%, 1.0%, -3.6, 1.5, 4.9%, -1.1%, -8.4, -20.7, 4.6%
13) CCOc1ccccc1Nc1nc2ccc(C)cc2n2cnnc12
→ -5.0, -7.1%, -0.5%, 1.2, 3.1, 0.0%, -3.3%, -25.6, -11.5, ·
14) COCCCN1C(=O)c2[nH]nc(-c3cc(C)cc(C)c3O)c2C1c1ccc(O)c(OC)c1 (stereo unspecified)
→ 4.5, 2.7%, 5.5%, -4.4, 0.3, 0.7%, 1.4%, 4.0, 7.7, -3.2%
15) CC(C)C(NC(=O)c1c(F)cccc1F)C(=O)NCC(c1ccccc1)N(C)C (stereo unspecified)
→ 6.3, -8.9%, -0.2%, -2.5, 3.2, 2.7%, 4.9%, 9.5, -9.1, 1.0%
16) COc1ccc(CC(=O)N2CCc3cc(OC)c(OC)cc3C2)cc1
→ 7.0, -4.6%, -0.9%, 7.5, -0.2, -6.4%, 0.9%, -5.9, 13.0, ·
17) CN(Cc1ccccc1)C(=O)c1ccc2c(c1)OCO2
→ 0.2, -2.6%, -1.0%, 4.1, -1.0, -1.5%, 0.2%, -11.6, -10.5, -5.0%
18) COc1ccc(OC)c(-c2csc(N3CCC(c4ccccc4)CC3)n2)c1
→ ?, -9.8%, 0.0%, -3.2, -0.9, 1.5%, 1.7%, -22.3, -10.1, -8.2%
19) CCOC(=O)CN1C(=O)SC(Nc2ccc(C)cc2)C1=O (stereo unspecified)
→ 3.6, -2.8%, 0.0%, 7.4, 4.1, 2.7%, 0.0%, -3.8, 7.7, 5.2%
20) CCN1CCCC1CNS(=O)(=O)c1cccc(C(F)(F)F)c1 (stereo unspecified)
→ 3.0, -0.8%, 0.4%, 2.4, 0.1, 1.5%, -2.4%, -9.3, 18.7, -1.0%
21) Cc1cc(Cl)cc2sc(NC(=O)C3CC3)nc12
→ 4.2, ·, -0.3%, 11.6, -1.4, -0.4%, ·, -2.2, -21.8, 2.4%
22) COc1ccc(CN(C)CC(=O)Nc2sc3c(c2C#N)CCC3)cc1OC
→ -0.8, -5.4%, 2.9%, 23.6, 1.6, 2.2%, -0.9%, -19.5, -18.1, 0.7%
23) COc1ccc(/C=C2/NC(=O)N(CC(=O)Nc3cccc(C)c3)C2=O)cc1O
→ 0.7, -6.3%, 0.1%, -0.1, -0.2, -0.4%, -0.4%, -7.0, -14.9, -3.0%
24) O=C(/C=C/c1cccs1)N1CCCCC1
→ 6.7, -3.9%, -0.1%, 0.0, 3.4, 12.4%, -3.4%, -12.8, -5.6, -14.3%

Some values from the results shown:
O=C(/C=C/c1cccs1)N1CCCCC1 in Coupling enz → 3.4
COc1ccc(CN(C)CC(=O)Nc2sc3c(c2C#N)CCC3)cc1OC in hERG WT inh → -19.5
